2A StopGo = lowers the luciferase signal of an FMDV 2A StopGo reporter. human cells with a luciferase reporter of 2A StopGo recoding; control for the full effect not named in the record. Potency, µM (titrated, usually from 57.9 µM), inactives show top-dose signal change, negative = less light. actives 1.2% (n = 410,000). AID 1159524; active = well fitted falling curve with a large enough effect; inconclusive = small, poorly fitted or top-dose-only effect; inactive = no such curve, though single readings can be large or run the other way; tested in HEK293T cells; also: % is scaled to controls: 0 for no effect and ±100 for the full control effect; nearly all actives have a fitted effect of over 45% in size; luciferase light after 4 h
NS1 function inh = influenza NS1 inhibition; S. cerevisiae slowed by influenza A NS1, growth recovery by OD600; Potency, µM (top dose mostly 46.1 µM), without a hit: top-dose activity, positive = more growth; actives 0.4% (n = 270,000); AID 2326; active means well fitted rising curve with a large enough effect; inconclusive means small, poorly fitted or top-dose-only effect; inactive means no such curve, though single readings can be large or run the other way; also: nearly all actives have a fitted effect of over 50% in size
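Growth recovery, yeast-based: influenza A NS1 expressed in S. cerevisiae causes slow growth, and suppressors are detected by OD600. The parent strain without NS1 is used as positive control.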
RE007 growth inh = less growth of the S. pombe RE007 Vpr strain; actives 0.21% (n = 360,000); S. pombe RE007 Vpr strain, BacTiter-Glo ATP luminescence, 24 h; control for the full effect not named in the record; Potency, µM (titrated, usually from 92.2 µM), for the others: at the top dose activity change, negative = less growth; active = well fitted falling curve with a large enough effect; inconclusive = small, poorly fitted or top-dose-only effect; inactive = no such curve, though single readings can be large or run the other way;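 also: % is scaled to controls: 0 for no effect and ±100 for the full control effect; nearly all actives have a fitted effect of over 50% in size; the assay follows cell death caused by Vpr and the record does not say whether a fall means rescue or toxicity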
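Fission yeast RE007 carrying one integrated HIV-1 vpr copy, seeded at OD 0.01 in PMG+AL medium with 23 nL pinned compound. Grown 24 h at 30 degrees; viability read by BacTiter-Glo luminescence after 5 min.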
LASV entry inh = inhibitors of Lassa virus binding or cell entry. Lassa virus pseudotype entry inhibition, cell reporter; control for the full effect not named in the record. Potency, µM (highest dose often 37.9 µM), for inactives: at the highest dose activity change, negative = inhibition, most hits filed as inhibitors. actives 1.2% (n = 300,000). AID 540256; active means well fitted inhibition curve with a large enough effect; inconclusive means small, poorly fitted or top-dose-only effect, or effect the other way; inactive means flat fitted curve, though single readings scatter; tested in HEK293 cells; also: % is scaled to controls: 0 for no effect and ±100 for the full control effect; nearly all actives have a fitted effect of over 50% in size; luciferase read-out
MARV entry inh = inhibitors of Marburg virus binding or cell entry. Marburg virus pseudotyped entry inhibition, cell reporter; control for the full effect not named in the record; about a third of the inactives were read at about 46 µM. Potency, µM (series often up to 37.8 µM), inactives show at the top dose activity change, negative = inhibition, hits mostly inhibitors. actives 1.8% (n = 300,000); active = well fitted inhibition curve with a large enough effect; inconclusive = small, poorly fitted or top-dose-only effect, or effect the other way; inactive = flat fitted curve, though single readings scatter; tested in HEK293 cells; about a fifth of its hits are not listed in these tables; also: % is scaled to controls: 0 for no effect and ±100 for the full control effect; luciferase read-out
Cruzain inh Det = inhibitors of Trypanosoma cruzi cruzain with detergent | actives 0.43% (n = 200,000) | Potency, µM, for the others: max response, negative = inhibition, most hits filed as inhibitors | AID 1478 | P25779 | purified cruzain, Z-FR-AMC fluorescence, 0.01% Triton;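 also: plate controls were neutral wells for no effect and buffer without enzyme for full effect; nearly all actives have a fitted effect of over 40% in size; top concentration of the series not given in the record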
Target sequence (P25779 123-467 limits assumed): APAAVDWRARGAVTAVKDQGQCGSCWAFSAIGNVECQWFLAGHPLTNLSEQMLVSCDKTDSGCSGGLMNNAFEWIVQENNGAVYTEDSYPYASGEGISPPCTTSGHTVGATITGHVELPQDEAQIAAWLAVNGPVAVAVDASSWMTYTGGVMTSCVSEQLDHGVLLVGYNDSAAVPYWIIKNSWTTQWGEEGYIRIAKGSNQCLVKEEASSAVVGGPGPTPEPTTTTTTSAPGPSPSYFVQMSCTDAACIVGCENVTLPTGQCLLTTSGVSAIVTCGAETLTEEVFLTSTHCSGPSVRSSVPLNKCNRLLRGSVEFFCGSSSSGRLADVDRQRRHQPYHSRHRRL
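Detergent-containing arm of a paired screen for aggregation-based inhibition: 0.01% Triton X-100 present. Cruzain at 1.5 nM cleaved 2 uM Z-FR-AMC at pH 5.5 with 5 mM DTT; AMC fluorescence gain over 60 s measured activity.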
SARS PLP yeast = inhibitors of SARS-CoV papain-like protease in yeast | S. cerevisiae expressing SARS-CoV PLpro, growth rescue; control for the full effect not named in the record | Potency, µM (highest dose often 32.9 µM), for the others: at the highest dose activity, positive = growth rescue | actives 0.19% (n = 330,000) | AID 485353; active means well fitted rising curve with a large enough effect; inconclusive means small, poorly fitted or top-dose-only effect; inactive means no such curve, though single readings can be large or run the other way; also: 0% is about no effect; nearly all actives have a fitted effect of over 55% in size; growth read by luminescence after 48 h
Cruzain noTriton = inhibitors of Trypanosoma cruzi cruzain without detergent; P25779; purified cruzain, Z-FR-AMC fluorescence, no detergent; Potency, µM, without a hit: max response, negative = inhibition, actives largely listed as inhibitors; actives 2.3% (n = 200,000); AID 1476;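 also: plate controls were enzyme without inhibitor for no effect and buffer without enzyme for full effect; nearly all actives have a fitted effect of over 40% in size; top concentration of the series not given in the record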
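Purified cruzain at 1.5 nM, pre-incubated 15 min with compound at room temperature in 100 mM sodium acetate pH 5.5, 5 mM DTT, 0.00005% Triton X-100. Reaction started with 2 uM Z-FR-AMC; AMC fluorescence increase over 60 s gives rate.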
* marks the source's active call; other numbers are inactive results; u = inconclusive; x = not tested or not shown; & = joins results of further samples; [ ] = remark or other dose. Unless noted, calls follow the shape of the dose curve; as a rule, active = well fitted curve in the direction sought with a large enough effect; inconclusive = small, poorly fitted or top-dose-only effect, or another doubt; inactive = no such curve, though single readings can be large; an effect the other way counts as inactive or inconclusive. Potency is read from the fitted curve at half-maximal effect. Compounds were not picked by outcome; overall some 4.7% were active at least once.

Sequence of screens – 2A StopGo	NS1 function inh	RE007 growth inh	LASV entry inh	MARV entry inh	Cruzain inh Det	SARS PLP yeast	Cruzain noTriton
> CCOC(=O)N1CCc2c(sc3c2c(=O)n(-c2ccc(Cl)cc2)c(=O)n3Cc2cccc(C)c2)C1
  -7%	x	x	11%[46.1 µM]	3%[46.1 µM]	-1.8%	x	9%
> COC(=O)COc1cc(=O)oc2ccc(NS(=O)(=O)c3ccccc3)cc12
  19%	2%	-12%	x	x	x	-2%	x
> Cc1ccc(CNC(=O)C2CCC(=O)N(CCc3cccc(F)c3)C2)cc1 (stereo unspecified)
  -12%	-8%	-4%	-7%	-4%	x	u	x
> O=c1[nH]c2ccccc2nc1C(Cl)c1ccccc1 (stereo unspecified)
  x	1%	x	x	-5%	-1.5%	10%	-15%
> Cc1ccc2nc(SCC(=O)Nc3ccccc3F)nc(=O)n2c1
  4%	x	-10%	-16%	4%	x	3%	x
> O=C(N/N=C/C=C/c1ccccc1)c1n[nH]c2c1CCC2
  38%[activator]	10%	7%	-5%	u	-0.7%	5%	u
> Cc1cc2c(C)nc(N/N=C/c3ccccc3)nc2o1
  24%	18%	4%	6%	u	-6.0%	-1%	-8%
> COc1cc([N+](=O)[O-])c2nc(C)ccc2c1[N+](=O)[O-]
  -20%	x	u	-16%	u	x	x	x
> CN(C)S(=O)(=O)N(CC(=O)Nc1ccccc1C(F)(F)F)c1ccccc1
  x	-2%	x	x	x	1.7%	1%	11%
> CCOC(=O)CCCSc1nnc(CCCCCN2C(=O)c3cccc4cccc(c34)C2=O)o1
  -9%	-5%	4%	-1%	21%	-9.7%	19%	u
> O=C(CCl)Nc1ccccc1Sc1ccc(Cl)cc1
  32µM*	-7%	1%[3.69 µM]	u	23µM*	-6.0%	u	3%
> CCOC(=O)C1=C(CC)Nc2ccccc2N=C1N
  -20%	x	-7%	-5%	-2%	x	1%	x
> CCOc1ccc(C(=O)NC2CCN(CC(=O)NCc3ccccc3)CC2)cc1
  3%	2%	3%	5%[46.1 µM]	2%[46.1 µM]	x	8%	x
> Cn1nc(C(=O)NCC2CCCO2)c2ccccc2c1=O (stereo unspecified)
  -20%	-11%	6%	5%	7%	6.8%	2%	-4%
> O=C(CNC(=O)C1CCCCC1)OCc1cc(=O)oc2ccc3ccccc3c12
  -16%	5%	3%	0%	u	3.2µM*	-5%	-20%
> COc1ccc(Cl)cc1N(CC(=O)Nc1ccccc1C(=O)N1CCOCC1)S(C)(=O)=O
  -10%	2%	5%	7%	22%	x	0%	x
> CC(C)(C)C1CCC(OC(=O)c2ccncc2)CC1 (stereo unspecified)
  0%	-47%	19%	u	-3%	-0.2%	1%	15%
> CC(=NCc1ccco1)c1c(O)n(C2CCCCC2)c(=O)[nH]c1=O
  -18%	-18%	22%	2%	18%	-4.1%	-7%	2%
> COc1ccc(C(=O)NCc2nnc(SCC(=O)Nc3nc4ccc(C)cc4s3)o2)cc1OC
  -26%	5%	8%	17%	u	-0.7%	-8%	19%
> CC(C)(C)OC(=O)N1CCC(c2c(C(=O)NCc3ccccn3)cnn2-c2ccc(F)cc2)CC1
  -19%	x	x	u	x	-0.7%	x	u
> CC(=O)Nc1cccc(NC(=O)CSc2nnc(Cc3cccn3C)n2CCc2ccccc2)c1
  -15%	8%	0%	-19%	-6%&8%	0.3%	0%	u
> Cc1c(N=C(N)/N=C(\N)Nc2ccccc2)c(=O)n(-c2ccccc2)n1C
  -21%	5%	-4%	6%	-2%	0.0%	26%	-3%
> COc1ccc2sc(N(CCCN(C)C)C(=O)c3ccc(S(=O)(=O)N(C)Cc4ccccc4)cc3)nc2c1
  -24%	x	8%	u	u	x	-5%	x
> CCOc1ccc(CNCc2c(C(=O)O)n(Cc3ccc(OC)cc3)c3ccccc23)cc1
  -7%	x	x	u	x	-7.6%	x	16%
> O=C(COC(=O)CNC(=O)c1ccccc1F)Nc1cccnc1Cl
  -12%	x	17%	-15%	11%	x	-5%	x
> COc1ccc(S(=O)(=O)NCC(c2ccco2)S(=O)(=O)c2cccs2)cc1C (stereo unspecified)
  41%[activator]	x	x	u	x	-4.1%	x	12%
> CC(=O)Nc1cccc(C(=O)N(CCc2ccccc2)Cc2ccccc2)c1
  -1%	-8%	4%	0%	4%	x	-3%	x
> CNC(=O)c1[nH]cnc1C(=O)N[C@@H](CC(C)C)C(=O)OC(C)(C)C
  -18%	3%	-10%	x	x	x	-1%	x
> COc1cc(CN2CC(=O)N(c3ccccc3Cl)C2=S)cc(OC)c1OC
  32µM*	2%	7%	u	u	x	0%	x
> COc1ccc(-n2c(C)c(C(C)=O)c(C(C)=O)c2C)cc1OC
  -24%	9%	17%	-26%	-27%	-3.4%	4%	-2%

Compound profiles, as listed above. Screens in order: 2A StopGo	NS1 function inh	RE007 growth inh	LASV entry inh	MARV entry inh	Cruzain inh Det	SARS PLP yeast	Cruzain noTriton
Entry for Cc1c(N=C(N)/N=C(\N)Nc2ccccc2)c(=O)n(-c2ccccc2)n1C : -21%	5%	-4%	6%	-2%	0.0%	26%	-3%
Entry for COc1ccc2sc(N(CCCN(C)C)C(=O)c3ccc(S(=O)(=O)N(C)Cc4ccccc4)cc3)nc2c1 : -24%	x	8%	u	u	x	-5%	x
Entry for COc1ccc(-n2c(C)c(C(C)=O)c(C(C)=O)c2C)cc1OC : -24%	9%	17%	-26%	-27%	-3.4%	4%	-2%
Entry for CC(C)(C)C1CCC(OC(=O)c2ccncc2)CC1 (stereo unspecified) : 0%	-47%	19%	u	-3%	-0.2%	1%	15%

(cont.)
Sequence of screens – 2A StopGo	NS1 function inh	RE007 growth inh	LASV entry inh	MARV entry inh	Cruzain inh Det	SARS PLP yeast	Cruzain noTriton
> COc1cccc(CNCC(=O)N2C(C)CCCC2C)c1 (stereo unspecified)
  2%	-5%	-13%	u	-23%	3.8%	0%	6%
> COc1ccc(S(=O)(=O)N2CCC(C(=O)Nc3ccccc3C)CC2)c2cccnc12
  -19%	8%	-1%	-18%	-9%	-2.6%	-3%	u
> Cc1ccc(-n2ncc(C(=O)Nc3c(Cl)cccc3Cl)c2C2CCNCC2)cc1
  -10%	x	x	9%[46.1 µM]	x	-3.7%	x	-4%
> Cc1ccc(C)c(S(=O)(=O)N2CCN(c3ncnc4sccc34)CC2)c1
  u	x	12%	u	u	x	-13%	x
> Cn1c(CCNC(=O)c2ccccc2)nc2cc(NC(=O)C3CCCCC3)ccc21
  4%	5%	11%	3%	-2%	3.2%	5%	-14%
> CCOC(=O)N1CCN(S(=O)(=O)c2cc(Br)cc3c2N(C(=O)C2CC2)CC3)CC1
  33%[activator]	-81%	-2%	-26%	-1%&-1%	-0.9%	-3%	u
> Cn1c(CNC(=O)CNC(=O)c2ccccc2F)cc(=O)n(C)c1=O
  -1%	5%	2%	8%[46.1 µM]	2%[46.1 µM]	x	13%	x
> O=S(=O)(NC1CC1)c1cccc(S(=O)(=O)N2CCCC2)c1
  -11%	-3%	9%	-10%	u	3.8%	2%	5%
> CC(C)(C)C(=O)N1CCN(C(=O)c2ccco2)CC1
  1%	1%	0%	0%	18%	x	-7%	x
> CCn1cc(C(=O)OCc2cccc(Br)c2)c(=O)c2ccc(C)nc21
  -15%	-98%	-17%	-24%	-24%	-6.0%	-9%	19%
> COc1ccccc1/C=C/C(=O)OCC(=O)NC1CCS(=O)(=O)C1 (stereo unspecified)
  -1%	x	1%	-12%	-8%	x	-2%	x
> CN(C)S(=O)(=O)c1ccc(C(=O)Nc2nc(-c3ccccc3)c(C(=O)c3ccccc3)s2)cc1
  u	5%	-4%	-4%	6%	-3.4%	6%	u
> COc1cc(NC(=O)Cn2cnc(S(=O)(=O)N3CCCCC3)c2)cc(OC)c1OC
  7%	-13%	8%	5%[46.1 µM]	20%[46.1 µM]	x	-8%	x
> Cc1cccc(C)c1N(CC(O)Cn1c2ccccc2c2ccccc21)S(C)(=O)=O (stereo unspecified)
  u	-3%	9%	-28%[14.3 µM]	u	-3.8%	-13%	u
> COC(=O)c1ccc(C(=O)OC)c(NC(=O)COC(=O)c2ccc(OC)c(OC)c2OC)c1
  0%	2%	-4%	9%	u	-5.0%	4%	u
> Cc1ccc(C(=O)NCCNC(=O)c2ccc(F)cc2)cn1
  8%	14%	2%	-3%	u	x	8%	x
> O=[N+]([O-])c1ccc(Cl)c(CN2CCC(O)CC2)c1
  0%	9%	-2%	-5%	u	1.8%	-13%	11%

As a short view, part of the list above:
Sequence of screens – 2A StopGo	NS1 function inh	RE007 growth inh	LASV entry inh	MARV entry inh	Cruzain inh Det	SARS PLP yeast	Cruzain noTriton
> Cc1ccc(C(=O)NCCNC(=O)c2ccc(F)cc2)cn1
  8%	14%	2%	-3%	u	x	8%	x
> O=[N+]([O-])c1ccc(Cl)c(CN2CCC(O)CC2)c1
  0%	9%	-2%	-5%	u	1.8%	-13%	11%
